SARS PLpro yeast – inhibitors of SARS-CoV papain-like protease in yeast; S. cerevisiae expressing SARS-CoV PLpro, growth rescue; control for the full effect not named in the record; Potency, µM (titrated, usually from 32.9 µM), inactives show at the top dose activity, positive = growth rescue; 0.19% of 330,000 active; active means well fitted rising curve with a large enough effect; inconclusive means small, poorly fitted or top-dose-only effect; inactive means no such curve, though single readings can be large or run the other way; note: 0% is about no effect; nearly all actives have a fitted effect of over 55% in size; growth read by luminescence after 48 h
StopGo reporter – FMDV 2A StopGo reporter, luciferase signal | human cells with a luciferase reporter of 2A StopGo recoding; control for the full effect not named in the record | Potency, µM (highest dose often 57.9 µM), without a hit: at the top dose signal change, negative = less light | 1.2% of 410,000 active; active = well fitted falling curve with a large enough effect; inconclusive = small, poorly fitted or top-dose-only effect; inactive = no such curve, though single readings can be large or run the other way; tested in HEK293T cells; note: % is set by controls: 0 for no effect and ±100 for the full control effect; nearly all actives have a fitted effect of over 45% in size; luciferase light after 4 h
Marburg entry inh – Marburg virus entry inhibition; Marburg virus pseudotyped entry inhibition, cell reporter; control for the full effect not named in the record; about a third of the inactives were read at about 46 µM; Potency, µM (series often up to 37.8 µM), inactives show at the highest dose activity change, negative = inhibition, hits mostly inhibitors; 1.8% of 300,000 active; AID 540276; active = well fitted inhibition curve with a large enough effect; inconclusive = small, poorly fitted or top-dose-only effect, or effect the other way; inactive = flat fitted curve, though single readings scatter; tested in HEK293 cells; about a fifth of its hits are not listed in these tables; note: % is set by controls: 0 for no effect and ±100 for the full control effect; luciferase read-out
Cruzain Triton – cruzain (T. cruzi) inhibition with detergent; P25779; purified cruzain, Z-FR-AMC fluorescence, 0.01% Triton; Potency, µM, for inactives: max response, negative = inhibition, most hits filed as inhibitors; 0.43% of 200,000 active; AID 1478;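 note: plate controls were neutral wells for no effect and buffer without enzyme for full effect; nearly all actives have a fitted effect of over 40% in size; top concentration of the series not given in the record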
Target sequence (P25779 123-467 limits assumed): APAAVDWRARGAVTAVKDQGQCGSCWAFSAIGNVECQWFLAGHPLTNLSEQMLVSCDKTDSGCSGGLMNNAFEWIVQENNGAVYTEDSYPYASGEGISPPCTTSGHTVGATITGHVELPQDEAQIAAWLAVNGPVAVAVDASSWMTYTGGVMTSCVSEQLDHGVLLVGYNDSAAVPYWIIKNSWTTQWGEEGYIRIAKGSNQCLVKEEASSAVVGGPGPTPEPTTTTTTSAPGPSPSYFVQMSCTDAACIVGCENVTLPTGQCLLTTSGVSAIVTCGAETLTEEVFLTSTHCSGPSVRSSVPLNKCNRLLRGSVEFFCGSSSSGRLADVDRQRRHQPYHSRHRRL
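Read-out: AMC fluorescence (360 nm excitation, 450 nm emission), four reads over 2 min, first-to-third difference used. Conditions: cruzain 1.5 nM, Z-FR-AMC 2 uM, pH 5.5 acetate, 5 mM DTT, 0.01% Triton X-100.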
Lassa entry inh – Lassa virus entry inhibition | Lassa virus pseudotype entry inhibition, cell reporter; control for the full effect not named in the record | Potency, µM (series often up to 37.9 µM), without a hit: at the highest dose activity change, negative = inhibition, usual class: inhibitors | 1.2% of 300,000 active | AID 540256; active means well fitted inhibition curve with a large enough effect; inconclusive means small, poorly fitted or top-dose-only effect, or effect the other way; inactive means flat fitted curve, though single readings scatter; tested in HEK293 cells; note: % is set by controls: 0 for no effect and ±100 for the full control effect; nearly all actives have a fitted effect of over 50% in size; luciferase read-out
NS1 inh – blocks influenza NS1 protein function; S. cerevisiae slowed by influenza A NS1, growth recovery by OD600; Potency, µM (doses to about 46.1 µM), without a hit: at the top dose activity, positive = more growth; 0.4% of 270,000 active; AID 2326; active means well fitted rising curve with a large enough effect; inconclusive means small, poorly fitted or top-dose-only effect; inactive means no such curve, though single readings can be large or run the other way; note: nearly all actives have a fitted effect of over 50% in size
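OD600 was taken as the measure of yeast growth restored by compound in an NS1-expressing S. cerevisiae strain. Cells had been washed out of glucose medium and diluted 1:100 into galactose -URA medium, pH 6.0.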
Cruzain inh noDet – blocks cruzain activity in detergent-free assay; P25779; purified cruzain, Z-FR-AMC fluorescence, no detergent; Potency, µM, without a hit: max response, negative = inhibition, actives largely listed as inhibitors; 2.3% of 200,000 active;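 note: plate controls were enzyme without inhibitor for no effect and buffer without enzyme for full effect; nearly all actives have a fitted effect of over 40% in size; top concentration of the series not given in the record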
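Detergent-free condition (0.00005% Triton X-100) in acetate buffer pH 5.5 with DTT. 1.5 nM enzyme and compound were pre-mixed 15 min, then 2 uM Z-FR-AMC substrate added; reaction progress from fluorescence change between first and third reads (60 s).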
RE007 growth inh – less growth of the S. pombe RE007 Vpr strain; S. pombe RE007 Vpr strain, BacTiter-Glo ATP luminescence, 24 h; control for the full effect not named in the record; Potency, µM (titrated, usually from 92.2 µM), inactives show at the top dose activity change, negative = less growth; 0.21% of 360,000 active; AID 651644; active = well fitted falling curve with a large enough effect; inconclusive = small, poorly fitted or top-dose-only effect; inactive = no such curve, though single readings can be large or run the other way;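 note: % is set by controls: 0 for no effect and ±100 for the full control effect; nearly all actives have a fitted effect of over 50% in size; the assay follows cell death caused by Vpr and the record does not say whether a fall means rescue or toxicity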
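Fission yeast RE007 carrying one integrated HIV-1 vpr copy, seeded at OD 0.01 in PMG+AL medium with 23 nL pinned compound. Grown 24 h at 30 degrees; viability read by BacTiter-Glo luminescence after 5 min.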
Active calls of the source: *; ? = inconclusive; · = not tested or not shown; & = joins results of further samples; [ ] = dose if it differs, or a comment. Unless noted, calls come from the whole dose curve; as a rule, active = well fitted curve in the direction sought with a large enough effect; inconclusive = small, poorly fitted or top-dose-only effect, or another doubt; inactive = no such curve, though single readings can be large; an effect the other way counts as inactive or inconclusive. Potency is the fitted concentration of half-maximal effect.

SMILES | SARS PLpro yeast | StopGo reporter | Marburg entry inh | Cruzain Triton | Lassa entry inh | NS1 inh | Cruzain inh noDet | RE007 growth inh
Cc1ccc(C2CC(c3cccc(Br)c3)n3nc(N)nc3N2)cc1 (stereo not given) | -3.4% | -19.8% | · | 2.5% | · | -6.9% | -3.1% | 9.9%
Cc1c(CC(=O)NCC(C)C)c(=O)oc2cc3c(cc12)CCC(C)(C)O3 | 0.0% | 16.6% | 2.8%[46.1 µM] | · | -3.0%[46.1 µM] | 3.9% | · | 13.1%
CCc1nc(CNC(=O)C2CCC(=O)N(Cc3cccc(OC)c3)C2)no1 (stereo not given) | 4.0% | 25.9% | · | · | · | -1.6% | · | -5.5%
Cc1cc(C)nc(CCNC(=O)c2cc(COc3c(F)cccc3F)on2)n1 | 0.0% | 13.3% | 18.7%[46.1 µM] | · | ? | 4.7% | · | 1.9%
COc1ccccc1N1CCN(c2cc(C)nc3c(-c4ccc(Cl)cc4)c(C)nn23)CC1 | · | -6.6% | · | 0.7% | 23.0%[46.1 µM] | · | -5.8% | ·
COc1cc(/C=N/Nc2ccc(Cl)c(C(=O)O)c2)ccc1OCC(=O)N1C(C)CCCC1C (stereo not given) | 12.0% | 17.2% | ? | · | 11.0% | · | · | 2.8%
CCn1cc(C(=O)NCc2ccccc2F)c(=O)c2ccc(C)nc21 | -2.8% | 13.0% | -3.5% | · | 0.7% | 0.1% | · | 7.0%
O=C(c1cccc(NC2=NC3CS(=O)(=O)CC3S2)c1)N1CCN(c2cccc(Cl)c2)CC1 (stereo not given) | -5.1% | -14.0% | · | · | · | 12.9% | · | -0.2%
COc1ccc(-c2cc(C(C)=O)c(C)n2CCC(=O)NCc2ccccc2OC)cc1 | · | -11.4% | · | -2.5% | -24.1%[46.1 µM] | · | 1.6% | ·
Cc1ccc(-c2nc(C)c(CCNC(=O)c3ccccc3Br)s2)cc1 | · | 25.6% | · | -6.0% | ? | · | 11.2% | ·
CCn1c(SCc2ccc(F)cc2)nnc1-c1nn(-c2ccccc2)ccc1=O | 0.7% | -23.8% | -0.6% | 1.1% | -17.2% | 1.4% | 3.1% | -0.9%
CCCCCC(=O)N1CCN(CCN=CC2=C(O)CC(c3ccc(OC)cc3)CC2=O)CC1 (stereo not given) | 0.2% | -6.5%&-27.1% | -1.4%&9.9% | -1.1% | 5.3%&17.1% | -21.7% | ? | -13.1%&-0.7%
CN(C)CCCN(C(=O)c1ccc(S(=O)(=O)N2CCCCCC2)cc1)c1nc2ccc(Br)cc2s1 | -2.6% | -17.3% | ? | · | ? | -6.5% | · | 11.4%
O=C(O)CCCNC(=O)/C(=C\C=C\c1ccccc1)NC(=O)c1ccccc1Cl | 0.9% | 6.4% | -6.2% | · | 2.7%[46.1 µM] | 7.7% | · | -2.8%
COc1ccccc1N1N=C(C(=O)c2ccccc2)C2C(=O)N(c3ccc(Br)cc3)C(=O)C21 (stereo not given) | 1.1% | -20.4% | 6.7%[46.1 µM] | · | 19.3% | -1.7% | · | 40.4%
CN(C(=O)CSc1nc(-c2ccccc2)c(-c2ccccc2)o1)C1CCS(=O)(=O)C1 (stereo not given) | 0.4% | -28.2% | -14.6% | · | -13.0% | · | · | -4.3%
C#CCOc1ccc(/C=C2/C(=O)ON=C2C)cc1OCC | 1.3% | ? | 0.1%[46.1 µM] | · | 6.4%[46.1 µM] | ? | · | 1.4%
O=C(c1cc(S(=O)(=O)N2CCCCC2)ccc1F)N1CCC2(CC1)OCCO2 | 15.0% | · | ? | 1.0% | -1.2% | 6.5% | -4.5% | 5.7%
Cn1c(NCCCO)nc2c1c(=O)n(Cc1ccccc1F)c(=O)n2C | 5.9% | -8.9% | -9.4% | 3.1% | 13.4% | 2.6% | -5.0% | -3.0%
O=C(CCS(=O)(=O)Cc1ccccc1F)NCc1ccccc1Cl | 0.2% | -6.1% | 3.1%[46.1 µM] | · | -4.0%[46.1 µM] | · | · | -13.1%
COc1ccc(CSc2nc3ccccc3[nH]2)cc1 | -17.9% | -51.2% | ? | -0.3% | ? | -1.7% | -5.1% | 31.6µM*
Cc1cccc(N(Cc2ccc(Cl)cc2)S(C)(=O)=O)c1 | 1.0% | 17.0% | ? | · | -14.5% | 0.0% | · | 11.9%
Cc1cc2cc(CN(CC3CCCO3)C(=S)Nc3ccccc3)c(=O)[nH]c2cc1C (stereo not given) | 0.3% | -24.0% | ? | -7.5% | 7.08µM* | 21.8% | 21.8% | -3.9%
CNC(C(=O)c1ccccc1)C(OC)c1ccccc1 (stereo not given) | -5.2% | -13.7% | 19.9%[46.1 µM] | 8.6% | 3.0% | -2.9% | 11.1% | -8.4%
CN(Cc1ccccc1)Cc1nc2c([nH]1)c(=O)n(C)c(=O)n2C | 3.3% | -27.3% | 10.9%[46.1 µM] | 5.6% | -1.0% | 1.9% | -6.3% | 5.6%
CC(C)(C)c1cc(C(=O)N/N=C/c2ccncc2)n[nH]1 | -3.0% | 2.7% | · | · | · | 8.1% | · | -13.2%
CCn1ccc(C(=O)Nc2ncc(C)s2)n1 | 0.7% | 15.1% | · | · | · | -0.4% | · | -2.3%
c1ccc(Cn2c(-c3cccs3)nc3nc4ccccc4nc32)cc1 | 13.5% | · | · | 51.8%[activator] | · | -70.0% | ? | ·
O=C(CN1CCN(S(=O)(=O)c2ccccc2)CC1)Nc1ccc([N+](=O)[O-])cc1 | 29.6% | 0.0% | 1.6% | -5.8% | -17.5% | -24.9% | -8.2% | -2.5%
N#Cc1c(N)nc2c(c1N)CC(=O)N2c1ccccc1-c1ccccc1 | 1.7% | -8.8% | ? | 0.6% | 0.5% | 8.1% | 5.8% | -12.7%
Cc1nnc(-c2cccc(Br)c2)c2cn(-c3ccc(Br)cc3)nc12 | -13.7% | ? | ? | -1.0% | ? | 7.2% | ? | 1.7%
O=C1Nc2ccc(Cl)cc2C(C#CC2CC2)(C(F)(F)F)O1 (stereo not given) | -19.9% | ? | · | -2.3% | · | -70.2% | 4.7% | -0.5%
COc1ccc(NC(=O)c2cc(-c3ccc(OC)c(OC)c3)nc3ccccc23)c(OC)c1 | -13.5% | 7.0% | ? | · | ? | 14.0% | · | -3.1%
COc1ccc(CCNC(=O)c2cc3cc(F)ccc3nc2C)cc1OC | · | -11.4% | -1.0%[46.1 µM] | · | -13.0%[46.1 µM] | · | · | -21.8%
CCOC(=O)c1c(C)[nH]c(C2=NNC(=Nc3cccc(Cl)c3)SC2)c1C | -39.9% | · | ? | 0.6% | -22.9% | -2.5% | 15.8µM* | ·
O=C(Cc1ccc(Cl)c(Cl)c1)NCC1(N2CCOCC2)CCCCC1 | 1.8% | -21.2% | · | · | · | 5.0% | · | 4.6%
Cc1ccc(C(=O)c2cc3ccccc3o2)cc1C | -16.6% | 17.5% | -7.7% | -7.7% | ? | -1.6% | -1.3% | ?
COc1ccc(/C=C/C(=O)Nc2nc(C)c(C(=O)N(C)C)s2)cc1OC | -8.0% | -3.9% | ? | -11.5% | 4.0% | 3.1% | -2.5% | -6.2%
Cc1nc2c(-c3ccc(F)cc3)c(C)[nH]n2c(=O)c1Cl | -8.1% | -26.5% | · | · | · | -9.3% | · | 11.8%
COc1ccccc1C(=O)NC(=O)COC(=O)CCNS(=O)(=O)c1ccccc1 | -1.0% | -2.2% | -6.9% | · | 26.6% | · | · | -9.2%
FC(F)(F)c1ccc(-n2ccnc2)nc1 | 3.3% | 9.6% | 16.4% | 2.6% | 14.5% | 1.7% | -2.7% | 0.5%
COc1ccccc1N(C)C(=O)c1cc(S(=O)(=O)N2CCc3ccccc32)cn1C | 0.9% | -17.0% | · | · | · | 6.1% | · | -3.2%
COC(=O)C12CCc3c(ccc4cc(OC)ccc34)C1=CC(=O)C2 (stereo not given) | · | -9.7% | -24.5% | · | 9.9%[46.1 µM] | · | · | -26.1%
Cc1cc(C)cc(NC(=O)CSc2nc(=O)n(CCN3CCOCC3)c3c2CCCC3)c1 | -5.9% | -4.5% | -14.3%[46.1 µM] | · | 5.3% | · | · | 4.3%
COCCn1c(N)c(N(Cc2ccccc2)C(=O)C2=COCCO2)c(=O)[nH]c1=O | -0.6% | -19.2% | 2.9% | · | 13.1% | 8.5% | · | -0.1%
O=C(N/C(=C/c1cccc([N+](=O)[O-])c1)C(=O)N1CCCCC1)c1cccs1 | -6.9% | 65.9%[activator] | -3.8% | -2.9% | 4.2% | -2.0% | -2.6% | 0.8%
Cn1c(=O)cc(OCCCC(=O)NCc2ccco2)c2ccccc21 | 4.0% | 31.7%[activator] | -8.5% | 1.4% | -12.9% | 1.5% | 4.2% | 11.2%
Nc1nc2c(s1)COc1ccccc1-2 | -6.5% | 53.8%[activator] | · | · | · | -64.7% | · | -20.4%
COc1ccc(NC(=O)c2c(C(F)(F)F)nn(C)c2Cl)cc1 | 0.3% | -5.2% | 12.6%[46.1 µM] | · | -5.6% | · | · | 1.3%
CC1Cc2nc(SCC(=O)N3CCc4ccccc43)n(C)c(=O)c2S1 (stereo not given) | -6.6% | ? | -7.6% | -5.9% | 18.5% | -80.8% | 20.7% | -3.3%
CC(C)CN1CCN(Cc2cccc3cccnc23)CC1CCO (stereo not given) | -2.0% | -2.0% | -11.1%[46.1 µM] | · | -12.4%[46.1 µM] | 1.5% | · | 9.7%
COc1cc(/C=C2\SC(=S)N(Nc3ncc(C(F)(F)F)cc3Cl)C2=O)cc(OC)c1OC | 3.1% | -26.4% | -9.7% | -13.4% | -0.9% | ? | -4.1% | -2.8%
CCC(C)C(NC(=O)C1CCC(C)CC1)C(=O)NC(C(=O)OC)C(C)C (stereo not given) | -14.9% | -19.0% | ? | 2.7% | 8.5% | -4.1% | -5.7% | -3.7%
N=c1c(S(=O)(=O)c2ccc(Cl)cc2)cc2c(=O)n3ccccc3nc2n1C1CCCCC1 | -5.2% | -2.2% | 17.7%[46.1 µM] | · | -7.2%[46.1 µM] | -31.4% | · | -20.3%
